Bioassay records from PubChem BioAssay.
Ecoli rRNA inh: inhibits bacterial ribosomal RNA function over humanized ribosomes | 350,000 tested, 1.6% active | GFP signal change (wild-type ribosome), % (no concentration beside the values) | E. coli WT GFP vs humanized-ribosome RFP mutants, fluorescence, 24 h; stronger effect = lower value; DMSO median 0, no signal -100;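 active means significant combined selectivity score with lowered wild-type GFP, culture density cut under 30%, mutant RFP and density less affected; inactive means any of these conditions unmet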; further: one replicate is shown; some compounds called inactive have numbers as strong as hits
AF4-AF9 inh: MLL-AF4/AF9 protein interaction inhibition; P42568; AlphaScreen, biotin-AF4 peptide binding to FLAG-AF9; inhibition, % at 10 µM; 350,000 tested, 0.47% active; AID 651704;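 active means every replicate reaching a set inhibition limit, whatever the replicate mean, cut at about 25% in these data; inconclusive means mean inhibition reaches that limit but some replicates miss it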;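 further: 0% = plate neutral control median and 100% = total signal loss; the record names both 10 and 1 µM as test concentration; the first replicate is given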
Target sequence (P42568 whole entry, looked up): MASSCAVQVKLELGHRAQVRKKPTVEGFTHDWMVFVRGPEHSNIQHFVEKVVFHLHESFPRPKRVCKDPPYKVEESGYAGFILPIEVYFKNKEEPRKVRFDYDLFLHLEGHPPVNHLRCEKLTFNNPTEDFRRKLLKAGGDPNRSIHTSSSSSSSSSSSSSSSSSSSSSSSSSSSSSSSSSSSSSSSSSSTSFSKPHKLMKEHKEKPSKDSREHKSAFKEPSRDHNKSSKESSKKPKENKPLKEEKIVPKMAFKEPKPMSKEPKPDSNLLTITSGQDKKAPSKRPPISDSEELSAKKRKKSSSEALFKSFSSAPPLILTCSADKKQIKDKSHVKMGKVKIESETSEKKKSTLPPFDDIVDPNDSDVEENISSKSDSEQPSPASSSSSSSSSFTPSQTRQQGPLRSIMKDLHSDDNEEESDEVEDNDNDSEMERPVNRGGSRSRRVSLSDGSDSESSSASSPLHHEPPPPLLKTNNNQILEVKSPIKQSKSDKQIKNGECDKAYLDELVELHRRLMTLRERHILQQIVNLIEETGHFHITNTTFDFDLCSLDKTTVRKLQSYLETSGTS
Ecoli rRNA inh OD600: also measured in Ecoli rRNA inh; calls as there; OD600 change, %; measured here: OD600 growth;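 optical density of the mix in the first replicate; 0 = DMSO median and -100 = no signal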
Ecoli rRNA inh RFP: further read-out of Ecoli rRNA inh, marked with its call; RFP signal change, %; measured here: RFP humanized mutant strains;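 first replicate; 0 = DMSO median and -100 = no signal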
* marks the source's active call; other numbers are inactive results; u = inconclusive; & = joins results of further samples. An excerpt; rates above refer to the full screens.

SMILES	Ecoli rRNA inh	Ecoli rRNA inh OD600	Ecoli rRNA inh RFP	AF4-AF9 inh
C[C@H]1CN([C@@H](C)CO)C(=O)c2cc(NC(=O)Nc3ccc(F)cc3)ccc2O[C@H]1CN(C)Cc1ccncc1	-2	-4	-1.6	-0.1
CCCNC(=O)N1CC(=O)N2[C@H](CO)[C@@H](c3ccc(-c4cccc(C)c4)cc3)[C@@H]2C1	3	-2	3.2	-12
CCN1C[C@@H]2[C@@H]3C(=O)N(Cc4ccccc4)C(=O)[C@@H]3[C@](CC)(C1=O)N2C(=O)c1ccc(Br)cc1	-5	-4	4.2	1.6
C[C@@H]1CN([C@H](C)CO)C(=O)c2cc(NC(=O)NC3CCCCC3)ccc2O[C@H]1CN(C)Cc1ccc2c(c1)OCO2	-7	9	-1.1	3.4
COc1ccccc1C#Cc1cnc2c(c1)C(=O)N([C@H](C)CO)C[C@@H](C)[C@H](CN(C)C(C)=O)O2	-1	6	-2.9	-1.2
N#C[C@@H]1[C@@H](c2ccccc2C2=CCCCC2)[C@H](CO)N1S(=O)(=O)c1ccccc1	-41	-65	-6.3	-1.7
C[C@H]1CN([C@@H](C)CO)C(=O)c2cc(/C=C/c3ccccc3)cnc2O[C@@H]1CN(C)C(=O)C1CCC1	-7	-17	6.2	7.0
O=C1CNC[C@@H]2[C@@H](c3ccc(C4=CCCCC4)cc3)[C@H](CO)N12	-3	8	-4.1	1.6
CCCC#Cc1ccc2c(c1)O[C@@H](CN(C)C(=O)c1ccncc1)[C@@H](C)CN([C@@H](C)CO)S2(=O)=O	-3	-2	-2.6	-7.9
COc1ccc(C#Cc2cnc3c(c2)C(=O)N([C@H](C)CO)C[C@@H](C)[C@H](CN(C)C(=O)CC2CC2)O3)cc1	-3	-6	1.6	-5.9
O=C1CN(Cc2ccccc2)C[C@@H]2[C@H](c3ccc(Br)cc3)[C@H](CO)N12	6	-4	1.9	1.1
Cc1ccc(S(=O)(=O)Nc2ccc3c(c2)C(=O)N([C@@H](C)CO)C[C@H](C)[C@H](CN(C)Cc2ccc(C(=O)Nc4ccccc4N)cc2)O3)cc1	4	2	4.2	-1.4
CCOc1ccc(-c2cncc3nccn23)cc1	9	7	2.6	0.1
CNc1nc(NCCCN2CCCC2=O)c2sccc2n1	12	15	-0.7	-0.1
CCCNC(=O)Nc1ccc2c(c1)OC[C@@H](C)N(Cc1ccccn1)C[C@@H](C)[C@H](OC)CN(C)C2=O	1	-5	0.8	-1.7

Complete entries as entered above:
`O=C1CN(Cc2ccccc2)C[C@@H]2[C@H](c3ccc(Br)cc3)[C@H](CO)N12` is entered as Ecoli rRNA inh: 6; Ecoli rRNA inh OD600: -4; Ecoli rRNA inh RFP: 1.9; AF4-AF9 inh: 1.1
`Cc1ccc(S(=O)(=O)Nc2ccc3c(c2)C(=O)N([C@@H](C)CO)C[C@H](C)[C@H](CN(C)Cc2ccc(C(=O)Nc4ccccc4N)cc2)O3)cc1` is entered as Ecoli rRNA inh: 4; Ecoli rRNA inh OD600: 2; Ecoli rRNA inh RFP: 4.2; AF4-AF9 inh: -1.4
`C[C@@H]1CN([C@H](C)CO)C(=O)c2cc(NC(=O)NC3CCCCC3)ccc2O[C@H]1CN(C)Cc1ccc2c(c1)OCO2` is entered as Ecoli rRNA inh: -7; Ecoli rRNA inh OD600: 9; Ecoli rRNA inh RFP: -1.1; AF4-AF9 inh: 3.4

Next section.
SMILES	Ecoli rRNA inh	Ecoli rRNA inh OD600	Ecoli rRNA inh RFP	AF4-AF9 inh
CO[C@@H](C(=O)N(C)C[C@@H]1OCc2ccccc2-c2c(n(C)c3ccccc23)C(=O)N([C@H](C)CO)C[C@@H]1C)c1ccccc1	0	12	-3.7	-1.8
CO[C@@H]1CN(C)C(=O)c2cc(NC(C)=O)ccc2OC[C@H](C)N(C(=O)c2ccc(F)cc2)C[C@@H]1C	1	5	-0.1	1.0
C[C@H]1CN([C@@H](C)CO)C(=O)c2cccc(NC(=O)NC3CCCCC3)c2O[C@H]1CN(C)C(=O)Nc1ccc2c(c1)OCO2	1	0	-1.3	5.0
COc1ccc(S(=O)(=O)N(C)C[C@H]2OCCCC[C@@H](C)Oc3ccc(NC(=O)Nc4ccc5c(c4)OCO5)cc3C(=O)N([C@H](C)CO)C[C@@H]2C)cc1	0	6	-0.6	-2.8
COc1ccc(-c2nc3ccc(Cl)cn3c2Cc2ccsc2)cc1OC	-30	-28	-9.7	2.7
CN(C)C(=O)C[C@@H]1C=C[C@H](NC(=O)NC2CCCC2)[C@H](CO)O1	4	4	2.7	-5.3
CCN(C[C@H]1N[C@@H](CO)[C@@H]1c1ccc(-c2cccc(F)c2)cc1)C(=O)COC	-1	-5	1.5	-3.5
CC1(C(=O)NS(=O)(=O)c2ccccc2)CCN1C(=O)CCc1ccccc1 (configuration not stated)	7	10	-0.9	-1.9
C[C@H](CO)N1C[C@H](C)[C@@H](CN(C)C(=O)C2CC2)Oc2cc(/C=C/c3ccccc3)ccc2S1(=O)=O	-7	-26	-0.1	7.5
COc1ccccc1S(=O)(=O)N1[C@@H]2CNC[C@H]1C2c1ccc(-c2cccnc2)cc1 (some centres not stated)	2&1	8&8	0.6&-1.6	3.4
CC(C)CC#Cc1cnc2c(c1)C(=O)N([C@H](C)CO)C[C@@H](C)[C@H](CN(C)S(=O)(=O)c1cccs1)O2	-1	-10	7.2	-0.3
O=C(NCCN1CCCCC1)[C@@H]1[C@@H](CO)[C@@H]2Cn3c(cccc3=O)[C@@H]2N1C(=O)C1CC1	0	4	-0.4	-0.1
CCC(=O)N1[C@@H]2Cn3c(cccc3=O)[C@H]1[C@@H](C(=O)NC1CCCC1)[C@@H]2CO	-3	-4	3.2	-2.9
C[C@@H](NC(=O)C[C@H]1C[C@H]2c3cc(NC(=O)NC4CCCC4)ccc3O[C@H]2[C@H](CO)O1)c1ccccc1	1	2	2.8	-1.5
Cc1ccc(S(=O)(=O)N2C[C@H]3n4c(=O)ccc(=O)n4C[C@H](OC(=O)NC4CCCC4)[C@@]3(O)C2)cc1	-6	-4	2.9	-2.0
CCc1nc2ccc(C(=O)Nc3cccc(NS(C)(=O)=O)c3)cn2c1N(CC)CCOC	2	7	-0.6	-1.2
COc1ccccc1Cc1c(-c2ccccc2)nc2cc(C)c(Br)c(C)n12	0	15	0.7	-0.6
N#C[C@@H]1[C@@H](c2ccccc2)[C@H](CO)N1C(=O)c1ccc2c(c1)OCO2	-1	6	-3.0	-2.8
C[C@@H]1CN([C@H](C)CO)C(=O)Cc2cc(NC(=O)Cn3cnnn3)ccc2O[C@@H]1CN(C)Cc1ccc(C(=O)Nc2ccccc2N)cc1	-2	3	-1.3	-3.4
C[C@@H]1CN([C@H](C)CO)S(=O)(=O)c2ccc(C#CC3(O)CCCC3)cc2O[C@H]1CN(C)C(=O)c1cccnc1	1	3	-4.4	-2.4
CN(C)c1ncnc2c1ncn2[C@H]1CN(CCN2CCOCC2)C[C@@H](CO)O1	10	-5	5.8	-4.0
C[C@@H]1CN([C@H](C)CO)C(=O)CCCn2cc(nn2)CO[C@H]1CN(C)Cc1cccc(C(F)(F)F)c1	1	4	0.0	-1.1
CNC[C@@H]1OCCCC[C@H](C)Oc2ccc(NS(=O)(=O)c3ccc(F)cc3)cc2C(=O)N([C@@H](C)CO)C[C@H]1C	3	3	-2.4	0.8
Cc1cc(C)n2c(NC3CCCCC3)c(-c3ccccn3)nc2n1	1	0	5.2	11
C[C@@H]1CCCCO[C@H](CN(C)S(=O)(=O)c2cn(C)cn2)[C@@H](C)CN([C@@H](C)CO)C(=O)c2cc(NC(=O)Nc3ccc4c(c3)OCO4)ccc2O1	-1	-6	-2.5	6.4
COc1ccc(CN(C)C[C@@H]2Oc3ccc(NS(=O)(=O)c4ccc(C)cc4)cc3CC(=O)N([C@@H](C)CO)C[C@@H]2C)cc1	-2	-19	4.3	-1.1
O=C(c1cccnc1)N1CC2(C1)[C@@H](c1ccccc1)[C@H](CO)N2C(=O)C1CCC1	6	2	-0.7	-3.4
C/C=C/c1ccc([C@@H]2[C@H](CO)N(CC3CCCC3)C23CN(C(=O)CC)C3)cc1	-1	-29	29	4.2
COc1ccc(S(=O)(=O)Nc2ccc3c(c2)C(=O)N([C@@H](C)CO)C[C@@H](C)[C@H](CN(C)S(=O)(=O)c2ccc(Cl)cc2)OCCCC[C@H](C)O3)cc1	-2	5	5.2	-2.6
CCCC#Cc1ccc2c(c1)O[C@@H](CN(C)S(=O)(=O)c1cccc(F)c1)[C@H](C)CN([C@@H](C)CO)S2(=O)=O	0	-4	1.7	-4.1
Cc1cccc(C)c1NC(=O)C1C(c2ccc3c(c2)OCO3)=Nc2ccccc2N1C(=O)c1cccc(C(F)(F)F)c1 (configuration not stated)	12	23	8.4	3.7
CC(=O)N1[C@@H]2c3cccc(=O)n3C[C@@H]2[C@@H](CO)[C@@H]1C(=O)N1CCc2ccccc2C1	3	10	-2.1	-6.0
C[C@H](CO)N1C[C@H](C)[C@H](CN(C)CC2CC2)Oc2cc(C3=CCCC3)ccc2S1(=O)=O	3	19	-1.9	2.2
COc1cccc(OCCCN2CCC(C(O)(c3ccccc3)c3ccccc3)CC2)c1	-55	-80	-14	5.1
O=C(NCCC(F)(F)F)C1Cc2c(-c3ccccc3Oc3ccccc3)ccnc2O1 (configuration not stated)	-56	-75	-14	-2.8
C[C@H]1CN([C@@H](C)CO)C(=O)c2cc(NS(=O)(=O)c3cn(C)cn3)ccc2O[C@@H]1CN(C)CC1CCCCC1	-7	-1	-0.7	-1.4
CN1C(=O)c2cc(NC(=O)c3cscn3)ccc2OC[C@@H]2O[C@@H](CC(=O)NCc3ccc(Cl)c(Cl)c3)CC[C@H]21	-7	-10	0.1	-0.2
CNC[C@H]1Oc2ccc(NC(=O)Cn3cnnn3)cc2CC(=O)N([C@@H](C)CO)C[C@@H]1C	-3	6	0.4	-2.0
CCCNC(=O)[C@@H]1[C@@H](CO)[C@@H]2Cn3c(ccc(/C=C/c4ccccc4)c3=O)[C@H]1N2C(=O)C1CCC1	-8	-5	1.1	-4.2
Cc1cc2nc(-c3cccc(Cl)c3)c(CC3CCCCC3)n2c(C)c1Br	7	20	3.2	-5.0
CCNC(=O)C[C@H]1CC[C@@H]2[C@H](COC[C@H](O)CN2C(=O)Nc2ccc3c(c2)OCO3)O1	3	7	-3.5	1.1
O=C(/C=C/[C@H]1O[C@@H](n2ccc(=O)[nH]c2=O)[C@H](O)[C@@H]1O)NCc1ccccc1	-2	0	-0.7	-1.3
CC(C)CNc1ncnc2c1ncn2[C@H]1CN(Cc2ccc(-c3ccccc3)cc2)C[C@@H](CO)O1	-24	-39	26	6.2
C[C@H](CO)N1C[C@H](C)[C@H](CN(C)S(=O)(=O)c2ccccc2)OCCCC[C@H](C)Oc2ccc(NC(=O)CCC(F)(F)F)cc2C1=O	-3	-12	2.3	-1.1
O=C(C[C@H]1CC[C@H]2[C@@H](COC[C@@H](O)CN2S(=O)(=O)c2ccc(Cl)cc2)O1)N[C@H]1CCN(Cc2ccccc2)C1	-6	-4	-1.6	0.9
COc1ccc(NC(=O)N2C[C@H](O)COC[C@@H]3O[C@H](CC(=O)N4CCN(C)CC4)CC[C@H]32)cc1	5	23	-1.7	-3.3
COc1cccc(NC(=O)N[C@@H]2CC[C@@H](CC(=O)N3CCOCC3)O[C@@H]2CO)c1	0	-2	-2.1	-2.1
CO[C@@H]1CN(C)C(=O)c2ccc(NC(=O)c3cc(C)on3)cc2OC[C@H](C)NC[C@H]1C	-1	5	-2.5	-3.4
CC(=O)N1CCN(S(=O)(=O)c2cccc(C(=O)NNC(=O)c3ccc(Br)cc3)c2)CC1	-9	-11	-2.3	-5.7
CC(C)C[C@H]1CN(CCCC[C@@H]2CNC(=O)C(=O)N2Cc2ccccc2)C(=O)C(=O)N1CCc1ccc(O)cc1	2	9	2.1	-1.7
CCN(C(=O)COC(=O)c1ccccc1NCc1ccco1)c1c(N)n(Cc2ccccc2)c(=O)[nH]c1=O	6	8	-1.7	3.7
Cc1ccc(S(=O)(=O)Nc2ccc3c(c2)C(=O)N([C@@H](C)CO)C[C@H](C)[C@H](CN(C)S(=O)(=O)c2ccc(F)cc2)OCCCC[C@@H](C)O3)cc1	1	5	-2.0	-2.9
CC(C)[C@@H]1CC[C@@H](C)C[C@H]1O	-14*	14*	3.3*	-3.8
COc1ccccc1CNC(=O)C[C@H]1CC[C@H](NC(=O)CC2CC2)[C@@H](CO)O1	5	8	0.4	-2.3
CC(=O)N1Cc2cc(C(=O)NCC(F)(F)F)nc(-c3cccc(-c4cccnc4)c3)c2[C@@H]1CCO	-5&-4	-10&3	0.3&1.4	u
CNC[C@H]1Oc2c(NC(=O)Nc3ccc(C(F)(F)F)cc3)cccc2C(=O)N([C@@H](C)CO)C[C@@H]1C	1	0	0.3	1.1
C[C@H]1CN([C@@H](C)CO)C(=O)c2cc(C#CC3CCCC3)cnc2O[C@@H]1CN(C)S(=O)(=O)c1cccc(F)c1	-2	-1	1.6	1.2
COCC(=O)Nc1ccc2c(c1)C(=O)N(C)C[C@H](OC)[C@@H](C)CN(C(C)=O)[C@@H](C)CO2	1	0	0.7	-0.8
O=S1(=O)CC(N2CCCC2)CN1Cc1ccccc1 (configuration not stated)	6	16	-1.7	-6.0
CNc1cncc(-c2cccnc2)n1	7	13	4.0	-2.8
